# FGF22 binding: binders of recombinant human FGF22 by thermal shift; Q9HCT0; SYPRO orange fluorescence; percent of sucrose octasulfate shift, DMSO zero; calls only at 9.99 µM; actives 1.5% (n = 340,000); AID 651658;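 active = melting point raised past a set limit in the mean and every replicate; three in four hits are not shown here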
# Target sequence (Q9HCT0 whole entry, looked up): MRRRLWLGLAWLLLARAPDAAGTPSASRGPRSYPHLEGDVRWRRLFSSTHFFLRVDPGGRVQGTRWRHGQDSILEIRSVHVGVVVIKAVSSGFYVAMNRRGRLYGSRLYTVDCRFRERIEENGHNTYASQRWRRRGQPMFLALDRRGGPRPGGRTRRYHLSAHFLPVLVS
# MLL AF4-AF9 inh: inhibitors of human MLL-AF4/AF9 interaction | P42568 | AlphaScreen, biotin-AF4 peptide binding to FLAG-AF9 | inhibition, % at 10 µM | actives 0.47% (n = 350,000) | AID 651704;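 active = every replicate reaching a set inhibition limit, whatever the replicate mean, cut at about 25% in these data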;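 also: 0% = plate neutral control median and 100% = total signal loss; the record names both 10 and 1 µM as test concentration; the first replicate is given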
# Target sequence (P42568 whole entry, looked up): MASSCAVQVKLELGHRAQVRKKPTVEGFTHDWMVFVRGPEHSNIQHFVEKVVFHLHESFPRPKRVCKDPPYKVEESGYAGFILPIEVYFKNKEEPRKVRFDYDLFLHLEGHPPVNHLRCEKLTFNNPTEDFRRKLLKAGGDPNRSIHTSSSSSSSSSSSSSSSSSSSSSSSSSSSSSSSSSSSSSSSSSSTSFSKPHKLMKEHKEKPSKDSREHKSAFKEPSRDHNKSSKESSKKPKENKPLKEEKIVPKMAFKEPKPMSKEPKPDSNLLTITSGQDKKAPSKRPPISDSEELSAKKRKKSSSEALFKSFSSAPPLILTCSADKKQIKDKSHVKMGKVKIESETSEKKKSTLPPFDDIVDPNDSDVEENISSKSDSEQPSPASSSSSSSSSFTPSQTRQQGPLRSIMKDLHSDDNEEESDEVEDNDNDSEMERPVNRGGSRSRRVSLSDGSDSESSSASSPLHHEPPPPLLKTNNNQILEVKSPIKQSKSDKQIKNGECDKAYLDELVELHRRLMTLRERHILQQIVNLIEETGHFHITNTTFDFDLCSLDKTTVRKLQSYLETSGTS
# T cruzi inh: blocks replication of Trypanosoma cruzi. T. cruzi beta-gal in NIH3T3, luminescence, 90 h. inhibition, % (test concentration not listed). actives 1.4% (n = 300,000). AID 1885;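 active = mean inhibition across valid replicates above about 55%, limit read from the data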;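 also: signal also drops with host cell toxicity which is not excluded here; 0% = plate median of DMSO wells and 100% = zero luminescence signal; higher percent means less beta-gal luminescence so fewer parasites; stock transfer was 50 nL into about 50 µL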
# Beta apoptosis: blocks beta cell apoptosis. actives 0.8% (n = 300,000). INS-1E cytokine-induced death, ATP luminescence, 48 h; percent of positive-control rescue, neutral wells zero. protection from apoptosis, % (concentration not given with the values);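 active = all replicates at 75% or more, or half of them and the mean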;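 also: 0% = cytokine-treated negative control wells and 100% = positive control rescue; higher means more ATP so stronger rescue from cytokine killing; wells of about 40 µL received 100 nL stock; the first replicate is given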
# UCH37 inh: human UCH37 deubiquitinating enzyme inhibition | Q9Y5K5 | purified proteasome/UCH37, Ub-AMC cleavage fluorescence | inhibition, % (no concentration beside the values) | actives 0.33% (n = 330,000) | AID 588478;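 active = mean of two replicates above 20%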;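 also: 0% = compound-free wells with enzyme and 100% = wells lacking proteasome; stock transfer was 100 nL into about 20 µL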
# Target sequence (Q9Y5K5 whole entry, looked up): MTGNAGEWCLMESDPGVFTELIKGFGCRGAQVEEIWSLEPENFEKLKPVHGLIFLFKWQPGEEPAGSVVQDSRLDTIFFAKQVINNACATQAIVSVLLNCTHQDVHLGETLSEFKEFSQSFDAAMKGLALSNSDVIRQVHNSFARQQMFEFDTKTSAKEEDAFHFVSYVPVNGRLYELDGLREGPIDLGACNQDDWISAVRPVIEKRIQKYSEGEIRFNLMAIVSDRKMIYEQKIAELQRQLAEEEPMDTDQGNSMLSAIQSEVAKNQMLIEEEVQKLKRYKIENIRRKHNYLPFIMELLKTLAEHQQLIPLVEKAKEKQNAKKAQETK
#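 assay system = human UCH37 enzyme supplied as purified proteasome complex | amount = proteasome at 0.15 nM in the dispensed enzyme solution | schedule = 30 min compound-proteasome preincubation then 25 min substrate reaction, room temperature | measured by = fluorescence, ex 355 nm, em 460 nm | benchmarks = no-proteasome wells (full inhibition) and compound-free wells (no inhibition)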
# E coli growth: blocks Escherichia coli growth; OD600 absorbance (no concentration beside the values); AID 1053175; actives 0.21% (n = 330,000); OD600, 23 h; hits give low values;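 active = OD600 absorbance below the run mean of sample wells minus 3.6 SD, in any replicate, cut at about 0.56 in these data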;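 also: stock transfer was 300 nL into about 60 µL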
# A1 inh: inhibitors of the anti-apoptotic protein A1, read as caspase activation | MEF A1-2A-BIM cells, Caspase-Glo 3/7 luminescence, 3 h; percent of clofoctol response, vehicle zero | caspase activation, % (concentration not given with the values) | actives 0.066% (n = 330,000) | AID 2462;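 active = over half of replicate activation scores above 10%, or exactly half above 10 with the replicate mean above 10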;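 also: wells of about 30 µL received 50 nL stock; many hits fall short of the cut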
# Ecoli rRNA inh: inhibitors of bacterial rRNA selective over humanized ribosomes; E. coli WT GFP vs humanized-ribosome RFP mutants, fluorescence, 24 h; hits give low values; DMSO median 0, no signal -100; GFP signal change (wild-type ribosome), % (no concentration beside the values); actives 1.6% (n = 350,000); AID 720706;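 active = significant combined selectivity score with lowered wild-type GFP, culture density cut under 30%, mutant RFP and density less affected; inactive = any of these conditions unmet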; also: one replicate is shown; some compounds called inactive have numbers as strong as hits
# Ecoli rRNA inh OD600: recorded beside Ecoli rRNA inh, whose call it bears; OD600 change, %; measured here: OD600 growth;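 optical density of the mix in the first replicate; 0 = DMSO median and -100 = no signal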
# Ecoli rRNA inh RFP: recorded beside Ecoli rRNA inh, whose call it bears; RFP signal change, %; measured here: RFP humanized mutant strains;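 first replicate; 0 = DMSO median and -100 = no signal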
# An asterisk follows results filed as active; i = inactive; nt = not tested or not shown; + = active, no number. These rows are one share of the data; rates above refer to the full screens.
SMILES,FGF22 binding,MLL AF4-AF9 inh,T cruzi inh,Beta apoptosis,UCH37 inh,E coli growth,A1 inh,Ecoli rRNA inh,Ecoli rRNA inh OD600,Ecoli rRNA inh RFP
COc1ccccc1-c1cc(C(F)(F)F)nc(NCc2ccco2)n1,nt,nt,13,9,-12,0.72,1.1,nt,nt,nt
CC1=CSC2=NC(C(F)(F)F)(C(F)(F)F)NC(=O)N12,i,1.4,-10,1,0.9,0.66,-0.7,19,9,-0.2
O=C(C(Cc1ccccc1)n1cccc1)N1CCN(C2CCCCC2)CC1 (centres undefined),i,-9.2,16,4,3.3,0.81,-0.2,2,5,6.0
O=C(Nc1ccc(Cl)c(Cl)c1)Nc1ccon1,i,-3.6,28,11,-2.0,0.54*,-0.8,-10,-6,-3.7
CCOC(=O)c1sc(NC(=O)c2cc3n(n2)C(C(F)(F)F)CC(c2cccs2)N3)c(C(=O)OCC)c1C (centres undefined),nt,nt,6,nt,-48,0.79,-1.2,nt,nt,nt
O=C(N[C@@H](Cc1ccccc1)C(=O)OCc1ccccc1)c1nc[nH]c1C(=O)NC(c1ccccc1)c1ccccc1,i,-11,-7,-7,-0.2,nt,-4.6,17,8,-2.4
COc1ccc(C(=O)Nc2nccs2)cc1,i,-2.4,2,-12,1.2,0.62,-3.6,-5,10,-1.1
COc1ccc(OCCCCN(C)Cc2ccccc2)cc1,nt,2.4,29,nt,3.6,0.7,-0.1,12,7,2.2
CC(=O)c1cc(C#N)c(Oc2cccc(C(F)(F)F)c2)nc1C,nt,nt,2,8,-0.7,0.78,0.7,nt,nt,nt
COc1cccc(C2CC(c3ccccc3OC)n3nc(N)nc3N2)c1 (centres undefined),i,4.9,8,5,1.2,0.75,-0.5,3,0,1.3
COC(=O)C(NS(C)(=O)=O)(c1c(C)[nH]c2ccccc12)C(F)(F)F (centres undefined),nt,nt,-20,-4,0.6,0.67,1.4,nt,nt,nt
COc1ccc(C(=O)Nc2cccc(/C=C/c3nc4ccccc4c(=O)[nH]3)c2)cc1,i,-1.5,17,42,nt,nt,-1.2,6,11,22
CCOc1ccc(CNC(=O)CCC(=O)N2Cc3cccc(OC)c3Oc3ncccc32)cc1,i,-0.3,14,-9,1.6,0.7,1.2,2,-3,-2.0
COC(=O)c1[nH]c2ccccc2c1NC(=O)CN1CCC(C(N)=O)(N2CCCCC2)CC1,nt,nt,4,0,-5.2,0.76,0.3,nt,nt,nt
Cc1ccn2c(NC3CCCC3)c(-c3cccs3)nc2c1,i,9.5,16,-13,-318,0.67,-11,-30,-37,-6.0
COc1cc(NC2c3ccccc3C(=O)N2Cc2ccc3c(c2)OCO3)cc(OC)c1OC (centres undefined),i,1.2,-7,-3,0.8,0.8,0.2,-2,-5,-1.1
CCC1CN(C(=O)N2CCC(C(=O)NCc3ccc(C)o3)CC2)c2cc(C)ccc2O1 (centres undefined),i,2.8,5,-9,2.3,0.68,-0.1,-11,-13,1.5
Cc1cccc(NC(=O)CCc2nc3sc4c(c3c(=O)[nH]2)CCCC4)n1,nt,-2.0,16,nt,-2.2,0.67,-0.5,-5,-24,5.7
CC(=O)Cc1nsc(NC(=O)c2ccc(-c3cc(C(F)(F)F)ccc3Cl)o2)n1,nt,nt,-17,5,-2.3,0.7,1.0,nt,nt,nt
C/C(Cl)=C/Cn1c(=O)c2c(nc(Br)n2Cc2ccccc2)n(C)c1=O,nt,nt,3,11,2.7,0.69,0.1,nt,nt,nt
CCn1c(Cc2c(C)[nH]c3ccccc23)nnc1SCC(N)=O,i,-2.1,-9,-1,0.0,0.68,-0.8,5,13,2.4
CCO[C@@H]1OC(C(=O)Nc2ccccc2)=C[C@H](C)[C@H]1CCCO,i,-1.8,7,-5,6.2,nt,0.3,nt,nt,nt
CSc1nc2[nH]c3c(c2c2nncn12)CC(C)(C)OC3,nt,nt,2,-3,7.5,0.66,0.2,nt,nt,nt
CN(C)C1(CNC(=O)C2CCN(S(=O)(=O)c3cc(Cl)ccc3Cl)CC2)CCCCC1,i,1.3,25,-8,0.6,0.71,0.7,0,-2,-0.4
O=C(NCc1ccccc1)c1cc(-n2cnnc2)ccc1Cl,nt,nt,nt,-2,-1.1,0.75,-0.7,nt,nt,nt
CNc1c(NS(=O)(=O)c2ccc(CC(C)C)cc2)c(=O)oc2ccccc12,i,-2.7,-5,-2,-13,0.74,0.5,2,14,-2.2
Cc1c(C(C)CCCO)oc(=O)c2c1Oc1c(C)c(C(C)C[C@H](C)O)oc(=O)c1C2 (some centres undefined),i,-5.9,nt,1,-0.6,nt,-1.5,-5,15,15
COc1cc2c(C(=O)NCCCOC(C)C)cn(CC(C)C)c(=O)c2cc1OC,nt,nt,5,4,1.3,0.72,0.3,nt,nt,nt
O=C(/C=C/c1ccccc1)C1=C(O)C(=O)N(CCO)C1c1ccccc1[N+](=O)[O-] (centres undefined),i,-3.4,-15,-4,8.8,0.69,0.4,13,0,1.6
CCCCCCC1CC(CC(=O)Nc2ccc([N+](=O)[O-])cc2)C(=O)O1 (centres undefined),i,-4.0,10,-8,1.5,0.61,1.0,-9,-3,-12
CCCCN(CC)CCCNC(=O)CN1C(=O)CSc2ccc(S(=O)(=O)N3CCOCC3)cc21,nt,-2.5,-7,-4,-2.1,0.65,-0.2,24,15,2.2
COc1cc2c(cc1OC)C(c1cccc([N+](=O)[O-])c1)N(C(=O)CCC(=O)O)CC2 (centres undefined),i,-3.5,-9,-2,3.9,0.63,2.2,17,9,7.0
COc1ccc(NC(=S)N2CCN(CCN3C(=O)c4cccc5cccc(c45)C3=O)CC2)cc1,i,11,50,16,nt,nt,0.5,1,2,0.6
COc1cccc(C=Nc2ccc3c(c2)OCCO3)c1O,nt,nt,-10,nt,4.6,0.68,-1.3,nt,nt,nt
COc1cccc(-n2cc(C(=O)NC(C)C)c3ccccc3c2=O)c1,i,-1.9,0,nt,3.5,0.64,0.3,7,13,0.5
CC(=O)Nc1ccc(S(=O)(=O)NCCC(=O)NCC2COc3ccccc3O2)cc1 (centres undefined),i,-1.1,-7,-1,0.3,0.64,-0.1,7,13,-1.2
COC(=O)C1SCC2C(=O)N(Cc3cccc(C)c3)CC(=O)N21 (centres undefined),i,0.8,-4,-8,6.6,0.69,0.4,6,5,-0.4
O=C(NCc1ccccc1)C(=O)Nc1nc(C23CC4CC(CC(C4)C2)C3)cs1,i,0.1,-2,35,-1.4,0.71,-0.6,4,1,0.8
O=C(Nc1ccc(F)cc1F)Nc1sccc1-c1nc2ccccc2s1,i,-5.6,5,-12,-36,0.69,-0.3,-22*,-6.1*,7.7*
CCC(C)[C@H](NC(=O)NCc1cccnc1)C(=O)OC (some centres undefined),i,-7.6,nt,1,2.1,0.65,1.2,-1,-6,-1.8

# Reprinted at random: five records from the list
SMILES,FGF22 binding,MLL AF4-AF9 inh,T cruzi inh,Beta apoptosis,UCH37 inh,E coli growth,A1 inh,Ecoli rRNA inh,Ecoli rRNA inh OD600,Ecoli rRNA inh RFP
CCOC(=O)c1sc(NC(=O)c2cc3n(n2)C(C(F)(F)F)CC(c2cccs2)N3)c(C(=O)OCC)c1C (centres undefined),nt,nt,6,nt,-48,0.79,-1.2,nt,nt,nt
CC(=O)Nc1ccc(S(=O)(=O)NCCC(=O)NCC2COc3ccccc3O2)cc1 (centres undefined),i,-1.1,-7,-1,0.3,0.64,-0.1,7,13,-1.2
O=C(NCc1ccccc1)c1cc(-n2cnnc2)ccc1Cl,nt,nt,nt,-2,-1.1,0.75,-0.7,nt,nt,nt
COc1cccc(C=Nc2ccc3c(c2)OCCO3)c1O,nt,nt,-10,nt,4.6,0.68,-1.3,nt,nt,nt
COc1cc2c(cc1OC)C(c1cccc([N+](=O)[O-])c1)N(C(=O)CCC(=O)O)CC2 (centres undefined),i,-3.5,-9,-2,3.9,0.63,2.2,17,9,7.0

# More structures
SMILES,FGF22 binding,MLL AF4-AF9 inh,T cruzi inh,Beta apoptosis,UCH37 inh,E coli growth,A1 inh,Ecoli rRNA inh,Ecoli rRNA inh OD600,Ecoli rRNA inh RFP
CCOC(=O)CNc1ccc(C(=O)OCC)cc1[N+](=O)[O-],nt,nt,2,-9,4.7,0.68,1.0,nt,nt,nt
O=C(CSc1nc(-c2ccccc2)nc2ccc(F)cc12)Nc1ccc(C(=O)O)cc1,+,0.6,nt,0,15,0.68,0.4,nt,nt,nt
O=C1NC(=O)C(CC(=O)N(Cc2ccco2)C2(C(=O)NC3CCCC3)CCCCC2)N1 (centres undefined),nt,nt,4,-1,0.1,0.77,0.2,nt,nt,nt
O=[N+]([O-])c1c(NCCCO)cc(N2CCN(Cc3ccc4c(c3)OCO4)CC2)c2nonc12,i,5.5,18,nt,11,0.67,0.5,0,-18,4.1
Cc1ccc(S(=O)(=O)N(C)c2ccccc2C(=O)N2CCCC2)cc1,i,-0.2,1,-7,-0.6,0.7,0.1,4,-7,3.0
CCOc1ccc(S(=O)(=O)n2nc(C)c(S(=O)(=O)N3CCOCC3)c2C)cc1,i,-2.6,1,-10,1.9,0.65,0.5,6,12,-1.6
CCN(C(=O)c1cc2c(=O)n3cccc(C)c3nc2s1)C1CCCCC1,i,-0.5,29,0,-214,0.7,-0.8,-27,-37,-6.3
NC(=O)CCC(C(=O)O)N1C(=O)c2ccc(O)cc2C1=O (centres undefined),nt,-2.4,-9,-1,nt,nt,-0.3,5,3,4.1
Cc1ccc(-c2c(C#N)c(N)nc3c2CCCCC3)o1,nt,nt,-15,-1,-41,0.66,1.0,nt,nt,nt
COC(=O)c1ccc(OCC2NCCc3cc(OC)c(OC)cc32)cc1 (centres undefined),nt,nt,10,-4,-0.2,0.7,2.2,nt,nt,nt
CCc1nonc1NC(=O)c1oc2ccc(C)cc2c1C,i,-5.8,-5,-6,0.9,0.71,-3.1,4,21,7.4
O=C(CC1(O)C(=O)Nc2ccccc21)c1cccc(Br)c1 (centres undefined),nt,nt,11,-15,2.5,0.73,-0.3,nt,nt,nt
CN(Cc1ccccc1)CC1C2CCC(C2)C1O (centres undefined),i,-2.7,nt,nt,2.4,0.68,nt,6,20,-6.8
COCCOC(=O)CC1=NC(=O)CS1,nt,nt,-4,nt,6.5,0.75,0.4,nt,nt,nt
O=C(Nc1ccccc1)Nc1cccc(-c2cn3cccnc3n2)c1,i,-1.8,-13,10,-31,0.69,-1.2,12,3,1.4
CC(C)CC(c1nnnn1Cc1ccco1)N1CCN(C2CCCC2)CC1 (centres undefined),nt,nt,-3,-7,-0.4,0.73,0.5,nt,nt,nt
O=C1CCCC(=O)N1c1ccc(N2CCOCC2)c([N+](=O)[O-])c1,i,1.9,2,4,6.0,0.69,-1.0,10,8,2.1
COc1cccc(CC(=O)Nc2nc(-c3cccnc3)cs2)c1,i,-3.6,-9,-5,-0.3,0.67,-0.1,-6,-4,-2.2
